# Screening data as filed in PubChem.
# Sa ugtP lethal: kills S. aureus RN4220 lacking UgtP. S. aureus RN4220 ugtP deletion, OD600 growth, 16 h; some inactives read as strong as hits. growth inhibition, % (no concentration beside the values). hit rate 0.54% among 330,000;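 active means z-score under -3 and OD600 up to 0.15 on both plates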;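 further: plate controls were untreated wells for no effect and antibiotic for full effect; wells of about 80 µL received 100 nL stock; the first replicate is given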
# PrP UTR inh: suppresses PrP 5' UTR mRNA reporter expression | cell-based PrP 5' UTR mRNA reporter, plate reader | inhibition, % (concentration not given with the values) | hit rate 0.35% among 340,000 | AID 488862;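 active means every replicate at 50% or more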;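 further: 0 = median of the neutral control wells; tested in H4 reporter cells; numbers are from one replicate; inactives centre near -14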
# Bead autofluor: flagged as autofluorescent in microsphere protease counterscreen; compound autofluorescence counterscreen, microsphere flow cytometry; stronger effect = higher value; fluorescence intensity (no concentration beside the values); hit rate 3.1% among 360,000; AID 624483;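 active means at least 3 SD above the mean of all compounds, about 16000 in these data; inconclusive means too few beads counted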;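 further: 100 nL of 1 mM stock went into each well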
# BJeLR lethal: BJeLR cell viability loss; BJeLR (HRASV12) viability, CellTiter-Glo ATP luminescence, 48 h; reference of the scale not given here; inhibition, % (concentration not given with the values); hit rate 0.17% among 300,000; AID 1554;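 active means replicate mean above 50%; inconclusive means above 50% but judged a plate artefact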;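 further: 50 nL library stock added to about 25 µL; numbers are from one replicate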
# Sa RN4220 lethal: S. aureus RN4220 growth inhibition; OD600, 16 h; inhibition, % (concentration not given with the values); hit rate 0.33% among 330,000; AID 1259311;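 active means z-score of -3 or lower and OD600 up to 0.18 on both plates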;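 further: plate controls were untreated cells for no effect and reference antibiotic for full effect; stock transfer was 100 nL into about 80 µL; one replicate is shown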
# Mtb hypoxia rep: Mtb hypoxia fluorescent reporter inhibition | hit rate 0.1% among 300,000 | fluorescence inhibition, % (no concentration beside the values) | AID 1159583 | M. tuberculosis hypoxia-regulated fluorescent reporter, fluorescence;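 active means 35 to 45% if threefold the growth effect, above 45% if 1.5-fold the growth effect; inactive means the rest, general growth blockers included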;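 further: wells of about 50 µL received 100 nL stock; 0% = vehicle wells and 100% = reference inhibitor wells; whole bacteria with a GFP reporter of the hypoxia response; strong numbers were not always called active; many hits fall short of the cut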
# Mtb hypoxia rep growth: also measured in Mtb hypoxia rep; calls as there; growth inhibition, %; measured here: M. tuberculosis growth (absorbance);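 0% = vehicle and 100% = reference antibiotic; read after six days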
# * marks the source's active call; other numbers are inactive results; ? = inconclusive; · = no result given; & = joins results of further samples.
SMILES,Sa ugtP lethal,PrP UTR inh,Bead autofluor,BJeLR lethal,Sa RN4220 lethal,Mtb hypoxia rep,Mtb hypoxia rep growth
CCOC(=O)C1=C(C)N=c2s/c(=C\c3ccc(OCC(=O)O)cc3)c(=O)n2C1c1ccccc1 (stereo unspecified),·,-12,3485,-13,·,·,·
Cc1ccc(CN(C)S(=O)(=O)c2c(C)noc2/C=C/N(C)C)cc1,4,-13,5083,7,2.6,13,11
CN1C(=O)N(CC(=O)Nc2nccs2)C(=O)C12CCCCC2,2,-5,3562,·,2.3,-2,9
O=C(NCc1ccccc1CN1CCCC1)c1ccc(Cl)c(N2CCCC2=O)c1,-1,·,7103,·,0.8,11,8
CC(=NNS(=O)(=O)c1cccc([N+](=O)[O-])c1)c1cc2ccccc2o1,2,·,·,·,17,7,0
Cc1cc(C)n2nc(SCC(=O)N3CCC4(CC3)OCCO4)nc2n1,7,-16,19682*,4,4.0,2,5
O=C(CNC(=S)NC(=O)C1CCCCC1)c1ccccc1,-6,-84,7004,-6,5.5,0,2
O=C(O)CC(NC(=O)CC(c1ccccc1)c1ccccc1)c1cccc([N+](=O)[O-])c1 (stereo unspecified),11,-12,3813,3,4.4,2,0
CN(CC(=O)Nc1cccc([N+](=O)[O-])c1)S(=O)(=O)c1ccccc1,-1,-12,4521,3,6.9,14,4
CCCOc1ccc(N2C(=O)CC(N3CCN(C(=O)c4ccco4)CC3)C2=O)cc1 (stereo unspecified),1,-12,?,8,-1.0,-6,-3
Cc1ccc(NC(=O)CN2C(=O)S/C(=C\c3cc(C)n(C)c3C)C2=O)cc1,-5,-20,10946,2,-4.8,-4,0
Cc1ccccc1-n1c2nc(=O)n(C)c(=O)c-2cc2ccccc21,4,-28,3967,2,-0.5,3,3
CC(=O)NS(=O)(=O)c1cccnc1Nc1cccc(Cl)c1,-6,-26,4852,-3,-3.3,·,·
Cc1ccc(NC(=S)N(Cc2ccc(Br)cc2)Cc2ccc(C(=O)O)cc2)cc1C,7,-42,4811,6,12,-6,-3
COC(=O)c1sc(S(=O)(=O)Nc2ccc(Br)cc2)c(C(=O)OC)c1C,-11,-20,1889,·,29,5,1
Cc1ccccc1-n1nc(C)c2cc(C(=O)N3CCOCC3)sc21,3,-17,23082*,0,2.1,4,1
COCC(C)(C)COS(N)(=O)=O,2,-9,2961,-11,6.2,4,8
O=C(CCn1cnnn1)N1CCCC(Nc2ccc(F)cc2)C1 (stereo unspecified),-6,-10,5802,4,-3.9,-10,4
O=C(Nc1ccc(S(=O)(=O)Nc2ncccn2)cc1)C1COc2ccccc2O1 (stereo unspecified),12,-26,4877,-10,4.7,7,12
COC(=O)COC(=O)c1ccccc1NC(=O)c1ccccc1,7,-15,2246,5,-0.7,-5,10
COC(=O)CNC(=O)CSc1nc2c(sc(=S)n2-c2ccccc2)c(=O)[nH]1,5,-2,4149,5,2.5,14,7
COc1ccc(NS(=O)(=O)c2ccc(O)c(C(=O)OCC(=O)NC3CCCCC3)c2)cc1,-11,-18,3905,1,33,13,5
CSc1nnc(-c2sc3cc(C(F)(F)F)cnc3c2-c2ccccc2)n1C,7,-6,3554,22,2.8,·,·
O=C1CCCC2=C1C1(CCCCC1)N=C(Nc1nc3ccccc3s1)N2,5,-8,16571*,·,2.4,-8,-9

# Reformatted with values under each structure: 13 of the compounds above.
# Every second line gives: Sa ugtP lethal | PrP UTR inh | Bead autofluor | BJeLR lethal | Sa RN4220 lethal | Mtb hypoxia rep | Mtb hypoxia rep growth
- Cc1ccccc1-n1c2nc(=O)n(C)c(=O)c-2cc2ccccc21
  4 | -28 | 3967 | 2 | -0.5 | 3 | 3
- CC(=O)NS(=O)(=O)c1cccnc1Nc1cccc(Cl)c1
  -6 | -26 | 4852 | -3 | -3.3 | · | ·
- Cc1ccc(NC(=S)N(Cc2ccc(Br)cc2)Cc2ccc(C(=O)O)cc2)cc1C
  7 | -42 | 4811 | 6 | 12 | -6 | -3
- COC(=O)c1sc(S(=O)(=O)Nc2ccc(Br)cc2)c(C(=O)OC)c1C
  -11 | -20 | 1889 | · | 29 | 5 | 1
- Cc1ccccc1-n1nc(C)c2cc(C(=O)N3CCOCC3)sc21
  3 | -17 | 23082* | 0 | 2.1 | 4 | 1
- COCC(C)(C)COS(N)(=O)=O
  2 | -9 | 2961 | -11 | 6.2 | 4 | 8
- O=C(CCn1cnnn1)N1CCCC(Nc2ccc(F)cc2)C1 (stereo unspecified)
  -6 | -10 | 5802 | 4 | -3.9 | -10 | 4
- O=C(Nc1ccc(S(=O)(=O)Nc2ncccn2)cc1)C1COc2ccccc2O1 (stereo unspecified)
  12 | -26 | 4877 | -10 | 4.7 | 7 | 12
- COC(=O)COC(=O)c1ccccc1NC(=O)c1ccccc1
  7 | -15 | 2246 | 5 | -0.7 | -5 | 10
- COC(=O)CNC(=O)CSc1nc2c(sc(=S)n2-c2ccccc2)c(=O)[nH]1
  5 | -2 | 4149 | 5 | 2.5 | 14 | 7
- COc1ccc(NS(=O)(=O)c2ccc(O)c(C(=O)OCC(=O)NC3CCCCC3)c2)cc1
  -11 | -18 | 3905 | 1 | 33 | 13 | 5
- CSc1nnc(-c2sc3cc(C(F)(F)F)cnc3c2-c2ccccc2)n1C
  7 | -6 | 3554 | 22 | 2.8 | · | ·
- O=C1CCCC2=C1C1(CCCCC1)N=C(Nc1nc3ccccc3s1)N2
  5 | -8 | 16571* | · | 2.4 | -8 | -9

# Next part.
SMILES,Sa ugtP lethal,PrP UTR inh,Bead autofluor,BJeLR lethal,Sa RN4220 lethal,Mtb hypoxia rep,Mtb hypoxia rep growth
COc1cc(C=NN2C(C)CCCC2C)cc(Br)c1O (stereo unspecified),3,·,·,·,2.7,-3,3
CN1CCN(S(=O)(=O)c2ccc(NC(=O)Cc3ccc([N+](=O)[O-])cc3)cc2)CC1,2,5,6101,-4,2.8,4,19
CCCCN(CC)CCCNC(=O)c1cc2c(=O)n(C)c3ccccc3c2n1C,9,-11,6278,-7,0.2,·,·
O=C(NCCS(=O)(=O)NCc1ccccc1)c1ccc2c(c1)OCO2,12,-13,·,-5,4.3,-3,-4
C/C(=N/NC(=O)Cc1cccn1C)c1ccccc1,·,-27,6507,-13,·,·,·
CCN(c1ccccc1)S(=O)(=O)c1nnc(NC(=O)c2ccco2)s1,13,-7,4127,7,17,10,4
CCc1ccc(NC(=O)Cn2c(=O)n(CCC(=O)NC3CCN(Cc4ccccc4)CC3)c(=O)c3ccccc32)cc1,15,·,3666,3,3.6,-6,0
Cc1ccc(S(=O)(=O)N2CCN(C(=O)CCC(=O)OCC(=O)Nc3cccc(C#N)c3)CC2)cc1,3,-10,3066,4,4.4,-5,4
CC1(c2ccccc2)CC(C)(C)N2C(=O)/C(=C3\SC(=S)NC3=O)c3cccc1c32 (stereo unspecified),·,-8,2508,9,·,·,·
CC1Cc2ccccc2N1C(=O)CN1CCc2ccccc2C1 (stereo unspecified),1,-12,3442,-6,1.4,8,8
COc1ccccc1-n1c(-c2ccccc2)c[n+]2c1CCc1ccccc1-2,9&5,-11&-4,2259&3145,23&31,4.2&9.9,11&7,25&11
Cc1ccc2nc(C)cc(C(=O)NN=Cc3ccncc3)c2c1,5,·,·,·,-2.0,4,21
COc1ccc(SCCN2CCC(C(C)(C)C)CCC2=O)cc1 (stereo unspecified),6,·,·,·,8.5,6,4
COc1cc(C2c3sc(=O)[nH]c3SC3C4CCC(C4)C23)ccc1O (stereo unspecified),3,-18,11719,7,5.0,6,6
O=C(Nc1ccccc1N1CCN(c2ccccc2)CC1)c1ccccc1F,19,-23,3451,6,-0.7,-16,-8
O=C(NCC(=O)N(Cc1ccco1)C(C(=O)NC1CCCCC1)c1cccnc1)c1ccco1 (stereo unspecified),4,-14,4529,5,1.7,·,·
COc1ccc(OCC(O)CN2CCCCC2)cc1 (stereo unspecified),-4,-35,5519,2,-7.9,13,8
CCOCCOC(=O)c1[nH]c2c(c1C)C(=O)CC(c1ccc(N(C)C)cc1)C2 (stereo unspecified),6,-23,4628,-7,2.0,·,·
CCC(=O)N1CCN(c2ccc(OC)cc2[N+](=O)[O-])CC1,17,-8,10769,9,0.7,7,11
Cc1ccc(S(=O)(=O)Nc2ccc(Cl)cc2)cc1NC(=O)Cn1cnc2c1c(=O)n(C)c(=O)n2C,2,-4,2531,-12,0.3,6,-2
COc1cccc(C=NNC(=O)c2cccc3ccccc23)c1,-4,·,·,·,-1.1,2,3
C#CCOCCOCCOCCNc1nc(N2CCN(C(=O)[C@H]([C@@H](C)CC)n3cc([C@@H](N)CO)nn3)CC2)nc(N2CCN(C(=O)[C@H](Cc3ccc(O)cc3)n3cc([C@@H](N)C(C)CC)nn3)CC2)n1 (stereo partly specified),·,-10,4050,4,·,·,·
O=[N+]([O-])c1ccc(C(=Nc2cccc3ccccc23)N2CCOCC2)cc1,18,-25,17545*,-4,-1.7,14,5
O=C(Nc1cccc(NC(=O)c2ccccc2Cl)c1)c1cccs1,3,-32,3949,1,-0.7,7,-7
Cc1ccc(N2CC(NC(=O)C3CC3)CC2=O)cc1 (stereo unspecified),0,-25,?,-9,-1.0,8,13
CC1=NN(C(C#N)c2ccc([N+](=O)[O-])cc2)C(C)(C)C1 (stereo unspecified),1,·,·,8,3.0,11,12
CCCCC(C(=O)NN=Cc1ccccn1)C(=O)NN=Cc1ccccn1 (stereo unspecified),3,·,·,·,4.0,1,6
Cc1n[nH]c(=S)n1-c1ccccc1,8,-20,5279,10,0.7,12,2
Cc1nc2ccc([N+](=O)[O-])cc2c(=O)n1Cc1cccc(Br)c1,21,-37,4049,-2,1.6,2,2
O=C(Nc1cccc(F)c1)c1ccccc1,-3,-12,9531,6,2.8,18,15
Cc1ccc(-c2nnc(SCC(=O)N/N=C/c3ccccc3C(=O)O)n2-c2ccc(Cl)cc2)cc1,·,-11,5441,-1,·,·,·
CCn1c(=O)c(C(=O)CN2c3ccccc3CC2C)c(N)n(Cc2ccccc2)c1=O (stereo unspecified),-5,1,2243,-3,-5.2,9,10
COc1ccc(N2CCN(C(=O)c3ccc(CNS(=O)(=O)c4cccc(OC)c4)cc3)CC2)cc1,-3,-28,6066,6,-2.6,-1,-12
CCCCCCC(=O)N/N=C/c1ccc(Br)cc1,·,2,2916,12,·,·,·
Cc1ccc(NC(=O)CCSCCc2ccccn2)cc1,4,-19,2725,7,1.8,14,6
CN(C)Cc1nnnn1-c1cccc(-n2nnnc2CN(C)C)c1,6,-31,5748,1,1.8,6,-1
CCN1CCN(C(=O)C2CCCN(S(=O)(=O)c3cc(Cl)ccc3Cl)C2)CC1 (stereo unspecified),3,-9,4642,3,0.8,0,1
Nc1ccc(S(=O)(=O)Nc2ccc(C(=O)c3ccccc3)cc2)cc1,32,-1,4478,-6,-2.7,-7,21
Cn1cnc2cc(NC(=O)c3cccs3)ccc21,2,-61,4148,7,-1.2,-7,-7
Nc1cc(=O)[nH]c(SCc2nnc(-c3ccccc3)o2)n1,-9,-21,9325,3,6.7,7,2
CCN(CC)CCCNc1cc(C(F)(F)F)c(C#N)c2nc3ccccc3n12,7,·,4275,3,1.9,3,5
Cc1ccc(Nc2nc(CSc3nnc(-c4cccnc4)n3-c3ccccc3C)cs2)cc1,-9,-2,2580,0,-2.6,1,-3
COc1ccc(O)c(C2=Nc3ccccc3N=C(c3ccccc3)C2)c1,14,1,4979,-1,-7.4,-3,-11
COc1ccc(C(=O)OCCN2CCN(C3=NS(=O)(=O)c4ccccc43)CC2)cc1OC,-1,-17,3648,8,2.2,8,2
Cc1ccc(S(=O)(=O)/C(C#N)=C/c2c(N3CCN(C)CC3)nc3c(C)cccn3c2=O)cc1,-9,-25,3013,1,0.7,·,·
COc1ccccc1C1=NNC(=NCc2ccccc2)SC1,3,-32,3265,1,3.3,14,3
Cc1ccc(C(=O)NNC(=O)CSc2nnc3c(n2)[nH]c2ccc(C)cc23)cc1,-5,-17,·,0,5.0,6,9
Cc1ccc(NC(=O)c2ccco2)c([N+](=O)[O-])c1,-3,-69,4681,2,3.9,9,6
Cc1ccc(F)cc1NC(=S)NCCc1ccccc1,4,-9,2604,3,0.3,-2,-12
CCn1c(COc2ccc(=O)n(-c3ccccc3)n2)nnc1SCc1ccc(OC)cc1,1,-31,9400,0,6.2,-1,18
Cn1ncc(Br)c1C(=O)Nc1ccc(Br)cn1,·,-34,7761,-6,·,·,·
CN(C(=O)Cn1cc(C#N)c2ccccc21)c1ccccc1,5,-17,4231,-5,-0.1,8,5
COc1ccc2nc(Cl)c(C=NNc3ccccn3)cc2c1,8,·,·,·,1.1,6,9
